From PubChem
H5N1 CPE – antiviral screen in MDCK cells, H5N1 avian flu; inhibition, % at 50 µM; cytopathic effect, luminescence, 72 h; active compounds read high; no value below 0 was filed and about half of the inactive calls have no number; reference of the scale not given here; 0.07% of 96,000 active; in the data active = inhibition above about 25%
Active calls of the source: *; i = inactive. These rows are one share of the data; the hit share may differ from the screen's.

SMILES	H5N1 CPE
COC(=O)c1cc2sc(Cl)cc2n1Cc1nc(-c2cccc(C)c2)oc1C	i
COc1ccc(C2Nc3ccccc3C(=O)N2Cc2ccccc2)cc1CSc1ccccn1 (configuration not stated)	0.2
Cc1ccc(C)c2[nH]c(=O)c(CCNS(=O)(=O)c3ccccc3)cc12	1.5
COc1ccc(CN(CC(=O)NC2CCCC2)C(=O)c2onc(C(N)=O)c2N)cc1	0.1
COc1ccc(N2CCN(C(=O)C3CCC(Cn4c(=S)[nH]c5ccccc5c4=O)CC3)CC2)cc1 (configuration not stated)	i
CCCCc1cc(=O)oc2cc(OCC(=O)N(CC)CC)ccc12	i
O=C(c1ccco1)N1CCN=C1SCc1ccccc1Cl	1.3
CCc1nnc(NC(=O)CSc2nnc(-c3ccccc3O)n2-c2ccc(C)cc2C)s1	i
CC(C)(C)c1ccc(NC(=O)NCc2ccco2)cc1	8.6
O=C(COc1ccc(CO)cc1Cl)Nc1ccc(F)cc1	0.3
COc1ccc(NC(=O)Cn2c(-c3ccccc3)cn(-c3ccc(C)cc3)c2=O)cc1	i
O=C(COc1ncnc2ccccc12)NCc1ccc2c(c1)OCO2	i
CCC(=O)Nc1cccc(NC(=O)CSc2nnnn2Cc2ccccc2)c1	0.0
CCOC(=O)C1C(=O)C=C(c2ccc([N+](=O)[O-])cc2)CC1c1ccccc1 (configuration not stated)	0.2
CCNC(=O)CN(CCc1ccccc1)S(C)(=O)=O	0.2
CCCC(=O)c1cn(CC(=O)OC)c2ccccc12	i
COc1ccc(/C=N/NC(=O)c2nn(-c3ccc(C)c(C)c3)c(=O)c3ccccc23)cc1	0.9
Cc1cc(C)c(NC(=O)/C=C\C(=O)O)c([N+](=O)[O-])c1	i
CC1CCCCC1NC(=O)C1CCN(S(=O)(=O)c2ccc(-n3cnnn3)cc2)CC1 (configuration not stated)	i
NS(=O)(=O)c1ccc(NC(=O)C2CCCO2)cc1 (configuration not stated)	i
COc1cccc(CNC(=O)c2cnc(-c3ccccn3)nc2C(F)(F)F)c1	i
COc1ccc2nc(SCC(=O)Nc3c(C)cccc3C)[nH]c2c1	0.3
Cc1ccc(NC(=O)COc2nc(C)cs2)cc1	0.9
CCOC(=O)CSc1nc2ccc(N3CCOCC3)cc2c(=O)n1Cc1ccccc1	i
Cc1ccccc1-n1nc2c(c1NC(=O)c1c(-c3ccccc3Cl)noc1C)CS(=O)(=O)C2	0.2
CCOC(=O)c1ccc(NS(=O)(=O)c2cc(C)ccc2OC)cc1	0.2
O=C(NNc1cccc(Cl)n1)c1ccc(Cl)cc1Cl	1.1
Cc1ccc(S(=O)(=O)N2CCN(C(=O)c3ccccc3)CC2)cc1	0.5
CCCn1c(N2CCN(CC(=O)c3c(C)n(C)c4ccc(OC)cc34)CC2)nc2c1c(=O)[nH]c(=O)n2C	2.3
CCNc1nc(N)nc(Oc2ccc(OCCOc3ccccc3)nn2)n1	i
COc1ccccc1C(=O)Nc1nnc(-c2ccc3c(c2)CCCC3)o1	0.9
O=C(NCCOC(=O)c1cccs1)c1cccnc1	1.8
O=C(CCCn1c(=S)[nH]c2cc3c(cc2c1=O)OCO3)N1CCc2ccccc2C1	1.5
CCc1cccc2c1NC(=O)[C@]21[C@@H]2C(=O)N(Cc3ccccc3)C(=O)[C@@H]2[C@@H]2CCCN21	i
CC(C)OCCCNC(=O)CN1CCN(Cc2ccccc2Cl)C1=O	0.9
CC(C)CC(=O)NCCNC(=O)c1cc(OCC(F)(F)F)ccc1OCC(F)(F)F	i
CC1=NN(S(=O)(=O)c2ccc(F)cc2)C(=O)c2ccccc2O1	0.5
O=c1c(-c2ccco2)[n+]([O-])c2ccccc2n1OCc1ccccn1	0.2
Cc1ccc(CNc2oc(COc3ccccc3Cl)nc2C#N)cc1	i
COC(=O)C(Cc1ccccc1)NC(=O)COc1ccc(C(C)(C)C)cc1 (configuration not stated)	0.5
COc1ccc(NC(C)=O)cc1NC(=O)CSc1nnc(-c2ccc(F)cc2)n1N	0.6
Cc1ccc(C(=O)Nc2nc(C)c(C)s2)o1	i
C=COCCn1c(C)c(C(=O)OCC)c2cc(O)ccc21	i
Nc1cc(-c2ccccc2)nn1Cc1ccc(Cl)cc1	4.2
O=C(CSCc1ccccc1)Nc1cccc(C(=O)Nc2ccccc2C(=O)O)c1	i
COc1ccccc1C(=O)N1CCN(CCc2ccccc2)CC1	i
CCOc1ccccc1C(=O)NC1CC2CCCC(C1)N2Cc1nnnn1Cc1ccco1 (configuration not stated)	i
COC(=O)C(CC(C)C)NC(=O)CSc1nc(-c2ccccc2)c(C#N)c(=O)[nH]1 (configuration not stated)	1.2
Cc1ccsc1C(=O)OC1CCOC1=O (configuration not stated)	i
CC(C)C(OC(=O)C1CCCO1)C(=O)NC1CCCC1 (configuration not stated)	i

Continuation:
SMILES	H5N1 CPE
O=S(=O)(c1cccc(-c2csc(-c3ccccc3)n2)c1)N1CCOCC1	1.4
CC(=O)Nc1ccc(S(=O)(=O)Nc2ccc(N3CCOCC3)c(F)c2)cc1	1.8
Cc1ccc(S(=O)(=O)N2CCCC(c3nnc4n3-c3ccccc3SC4)C2)cc1 (configuration not stated)	0.5
Nc1ccc(Cl)c(NC(=O)c2cccs2)c1	i
Cc1cc2nnc(SC3CCCCN(C(=O)c4ccc(F)cc4)C3=O)n2c2ccccc12 (configuration not stated)	2.8
Cc1cc(=O)n2[nH]c(-c3ccccc3Cl)cc2n1	1.4
CCOP(=O)(OCC)C(NC(=O)C(Cl)Cl)C(Cl)(Cl)Cl (configuration not stated)	1.2
O=C(Cn1c(=O)oc2ccccc21)NC(=O)NCc1ccco1	1.1
CCOc1ccc(-c2nnc(N)s2)cc1	i
CCOC(=O)c1c(CN2CCC(C)CC2)oc2ccc(OC)cc12	i

Exported comma-delimited: part of the list above.
Structure,H5N1 CPE
CCCn1c(N2CCN(CC(=O)c3c(C)n(C)c4ccc(OC)cc34)CC2)nc2c1c(=O)[nH]c(=O)n2C,2.3
CCNc1nc(N)nc(Oc2ccc(OCCOc3ccccc3)nn2)n1,i
COc1ccccc1C(=O)Nc1nnc(-c2ccc3c(c2)CCCC3)o1,0.9
O=C(NCCOC(=O)c1cccs1)c1cccnc1,1.8
O=C(CCCn1c(=S)[nH]c2cc3c(cc2c1=O)OCO3)N1CCc2ccccc2C1,1.5
CCc1cccc2c1NC(=O)[C@]21[C@@H]2C(=O)N(Cc3ccccc3)C(=O)[C@@H]2[C@@H]2CCCN21,i

(more compounds)
SMILES	H5N1 CPE
CCOC(=O)c1ccc(N2C(=O)C(O)=C(C(C)=O)C2c2ccccn2)cc1 (configuration not stated)	i
c1ccc(-c2ccccc2-c2nc(-c3ccncc3)no2)cc1	0.4
Cc1cc(C(=O)NCCCC(=O)O)c(C)o1	0.1
CC(=O)Nc1cccc(OCC(=O)NC(C)C(C)C)c1 (configuration not stated)	i
Cc1ccc(C)c(C(=O)NCCN(C)C)c1	i
C#CCN1C(=O)C(O)(CC(=O)c2ccc(OC)c(OC)c2)c2ccccc21 (configuration not stated)	0.7
CCCOc1ccc(C(=O)N2CCCC2C(=O)O)cc1 (configuration not stated)	0.4
NCC12CC3CC(C1)CC(CN)(C3)C2	i
COc1cc(C)ccc1OCCOCCOc1ccccc1Br	2.4
Cc1nc(CNS(=O)(=O)c2ccc(Oc3ccccc3)cc2)cs1	0.8
COc1ccc(N(CC(=O)N2c3ccccc3CC2C)S(=O)(=O)c2c(C)nn(C)c2C)cc1 (configuration not stated)	3.4
Cc1cc(C(=O)CSc2nnc(Cc3ccccc3)o2)c(C)n1Cc1ccc2c(c1)OCO2	0.8
O=C(NCC1CCCO1)C1CC(=O)N(C2CCCCCC2)C1 (configuration not stated)	0.2
O=C(c1cccs1)N1CCN(C(=O)N2CCOCC2)CC1	0.4
O=C(CSc1nc(-c2ccco2)cc(C(F)(F)F)n1)NCCc1ccccc1	i
O=C(NNc1c2ccccc2nc2ccccc12)c1ccc(O)cc1O	i
COc1ccc(OCC(O)CN(C2CCCCC2)C2CCCCC2)cc1 (configuration not stated)	0.8
Cc1cc(C)c2oc(-c3ccc(Cl)c(NC(=O)c4ccc(C#N)cc4F)c3)nc2c1	i
COc1cccc(CNn2c(-c3cccc(C)c3)nc3ccccc3c2=O)c1O	i
CSCC[C@H](NC(=O)OC(C)(C)C)c1nnc(SCc2ccc(F)cc2)o1	0.5
CCOc1ccccc1NC(=O)N1CCC(NC(=O)c2ccccc2C)CC1	0.5
CS(=O)(=O)Nc1ccc(C(=O)N2CCN(c3ccccc3)CC2)cc1	1.2
CCCCN(CC)CCCNC(=O)C1c2ccccc2C(=O)N(C)C1c1cn(C)c2ccccc12 (configuration not stated)	i
COc1ccc(OC)c(N=CC2=C(O)CC(C)(C)CC2=O)c1	i
CC1(C)CN(c2ccccc2)N(C(=O)c2ccc(C#N)cc2)C1=O	i
COc1ccc(NS(=O)(=O)c2ccc(OC)c3ccccc23)cn1	i
COc1cc(OC)c2c(c1)OC(c1ccc(OC)c(OC)c1)C(O)C2=O (configuration not stated)	i
O=C(COc1ccc(S(=O)(=O)N2CCOCC2)cc1)Nc1ccc2c(c1)OCCO2	i
O=C(NCCc1c[nH]c2ccccc12)c1cnc2sccn2c1=O	0.9
COc1ccc(C2c3c(-c4ccccc4O)n[nH]c3C(=O)N2CCc2ccc(OC)c(OC)c2)cc1 (configuration not stated)	13

Compounds shown so far containing a tert-butyl group:
SMILES	H5N1 CPE
CC(C)(C)c1ccc(NC(=O)NCc2ccco2)cc1	8.6
COC(=O)C(Cc1ccccc1)NC(=O)COc1ccc(C(C)(C)C)cc1 (configuration not stated)	0.5
CSCC[C@H](NC(=O)OC(C)(C)C)c1nnc(SCc2ccc(F)cc2)o1	0.5

(continued)
SMILES	H5N1 CPE
O=c1c2ccccc2nc(CSc2ncnc3nc[nH]c23)n1-c1cccc(C(F)(F)F)c1	0.4
O=C(COc1cccc(Oc2ccccc2)c1)Nc1ncccn1	i
COc1cc(C(C)=O)ccc1OCC(O)CNCC1(N2CCCCC2)CCCCC1 (configuration not stated)	0.3
O=S(=O)(Nc1cccnc1)c1cccs1	0.1
CC1CCc2nc(NC(=O)C3CC3)sc2C1 (configuration not stated)	i
O=P(Cc1ccccn1)(c1ccccc1)c1ccccc1	0.6
CCOC(=O)Cn1cc(C(=O)c2cccs2)c2ccccc21	2.9
Fc1ccc(SCCc2ccncc2)cc1	0.8
CCN1C(=O)/C(=C/c2cn(C)nc2C)SC1=S	0.5
Cc1ccc(S(=O)(=O)NC(C)(C)CSc2nnc(Nc3ccccc3)s2)cc1	5.3
CC(=O)Nc1ccc(S(=O)(=O)Nc2nc(CN3CCOCC3)nc3sc4c(c23)CCCC4)cc1	1.3
O=c1c(C(c2ccccc2)c2c(O)nc3n(c2=O)CCCS3)c(O)nc2n1CCCS2	i
O=C(NC1(C(F)(F)F)C(=O)Nc2c1c(=O)[nH]c(=O)n2-c1ccccc1)c1cccnc1 (configuration not stated)	i
COc1cccc(NC(=O)c2ccccc2-c2nc(-c3ccc(F)cc3)no2)c1	0.8
COc1ccc(C(=O)/C=C/Nc2cccc(O)c2)cc1	i
Cn1c(=O)oc2cc(S(=O)(=O)NCCC(=O)NC3CCCc4ccccc43)ccc21 (configuration not stated)	i
CCOC(=O)C1=C(c2ccccc2)N=c2s/c(=C\c3cccc(O)c3)c(=O)n2C1c1cccs1 (configuration not stated)	0.5
CCn1c(Cc2ccccc2)nnc1SCC(=O)Nc1nc(C)c(C)s1	0.4
CCc1ccccc1NC(=O)N[C@H](C(=O)O)C(C)C	0.3
Cc1ccc(OCCC(=O)OCC(=O)Nc2ccc(Cl)cn2)cc1	i
COc1ccc(-c2noc(-c3ccccc3C(=O)Nc3cccnc3)n2)cc1	i
CCCC(=O)Nc1cccc(C(=O)Nc2nccs2)c1	0.2
c1csc(-c2nc3nc4ccccc4nc3n2Cc2ccc3c(c2)OCO3)c1	0.1
CN1CCN(CC(=O)Nc2sc3c(c2C#N)CCC(C(C)(C)C)C3)CC1 (configuration not stated)	i
NC(=O)c1c(-c2ccccc2)oc2ccc(O)cc12	1.3
COc1cccc2cc(C(C)=O)c(=O)oc12	i
COc1ccc(Cl)cc1C(=O)NCc1cn(C)nc1C	0.2
COc1ccccc1S(=O)(=O)Cc1ccc(C(=O)N2CCN(c3ccccn3)CC2)o1	2.8
CC(C)CC(c1nnnn1C(C)(C)C)N1CCN(C2CCCC2)CC1 (configuration not stated)	0.3
COC(=O)c1cc(OC)c(OC)cc1NC(=O)CCCCCN1C(=O)CCC1=O	0.9

Quoted at random: five entries already listed.
SMILES	H5N1 CPE
COc1ccccc1S(=O)(=O)Cc1ccc(C(=O)N2CCN(c3ccccn3)CC2)o1	2.8
c1csc(-c2nc3nc4ccccc4nc3n2Cc2ccc3c(c2)OCO3)c1	0.1
NC(=O)c1c(-c2ccccc2)oc2ccc(O)cc12	1.3
CC(C)CC(c1nnnn1C(C)(C)C)N1CCN(C2CCCC2)CC1 (configuration not stated)	0.3
CN1CCN(CC(=O)Nc2sc3c(c2C#N)CCC(C(C)(C)C)C3)CC1 (configuration not stated)	i

Going on with the list:
SMILES	H5N1 CPE
O=C(c1ccc(-c2ccccc2)cc1)N1CCN(c2ncccn2)CC1	i
CCCCn1c(O)c(C(C)=NCCCN(C)C)c(=O)[nH]c1=O	1.1
CCCc1ccc(C(C)NC(=O)c2cnccn2)cc1 (configuration not stated)	i
O=C(CSc1nnc(-c2cccs2)n1Cc1ccccc1)NCc1ccc2c(c1)OCO2	0.9
Cn1c(=O)oc2cc(S(=O)(=O)N3CCCC3)ccc21	i
Brc1ccc(-c2nnc(-c3ccccc3)c(N3CCSCC3)n2)cc1	i
O=S(=O)(Nc1nc(CN2CCOCC2)nc2sc3c(c12)CCCC3)c1cc(F)ccc1F	0.1
CC(NC(=O)CC(O)(C(F)(F)F)C(F)(F)F)c1ccccc1 (configuration not stated)	1.9
CCCC1CCC(c2ccc(C(N)=O)cc2)CC1 (configuration not stated)	i
CC1CCN(c2nnc(N)s2)CC1	i
COc1ccc(N2CCN(c3oc(COc4ccc(Cl)cc4Cl)nc3C#N)CC2)cc1	1.6
CCOC(=O)CNC(=O)CSc1nc2ncc(Br)cc2[nH]1	i
CCOC(=O)C/C(C)=N/NC(=O)c1cccs1	i
Cc1cc(C)nc(/N=C2\NC(=O)CC(C(=O)O)N2c2ccc(Oc3ccccc3)cc2)n1 (configuration not stated)	0.4
